Screens as filed in PubChem.
ClpP mod: qHTS Assay for Activators of ClpP | purified B. subtilis ClpP, FRET peptide cleavage, 20 min | Potency, µM (top dose mostly 57.5 µM), inactives show top-dose activity change, negative = active | hit rate 1.9% among 340,000 | AID 651965, 2013; active = well fitted falling curve with a large enough effect; inconclusive = small, poorly fitted or top-dose-only effect; inactive = no such curve, though single readings can be large or run the other way; further: potency means the concentration at half of the fitted maximal effect; the source files actives as falling curves though it sought activators and does not explain the sign; nearly all actives have a fitted effect of over 65% in size; many hits overshoot -100%
Target sequence (P80244 whole entry, looked up): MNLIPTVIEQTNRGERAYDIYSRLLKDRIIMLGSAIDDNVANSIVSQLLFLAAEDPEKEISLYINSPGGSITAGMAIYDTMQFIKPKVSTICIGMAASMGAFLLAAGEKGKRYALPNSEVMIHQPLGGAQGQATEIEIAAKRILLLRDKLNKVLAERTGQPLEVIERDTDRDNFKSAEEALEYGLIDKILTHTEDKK
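Purified B. subtilis ClpP, 10 microg/mL final in Tris/HCl pH8 with KCl, BSA, glycerol and Tween-20, cleaved an Abz/nitrotyrosine-quenched decapeptide. Fluorescence (ex 320, em 430) was read at 0 and 20 min at room temperature. Delta was normalized to 5.8 microM ADEP and DMSO/no-enzyme controls.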
gsp antag: antagonizes gsp, the McCune-Albright syndrome mutation; gsp-mutant cells, cAMP HTRF, 30 min; control for the full effect not named in the record; Potency, µM (highest dose often 76.9 µM), for the others: top-dose activity change, negative = inhibition, usual class: inhibitors; hit rate 0.4% among 340,000; active = falling curve of any shape with a large fitted effect; inconclusive = falling curve, mostly with a smaller effect; inactive = flat or rising curve; cell line not stated here;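 further: intracellular cAMP measured with PDE inhibitor Ro 20-1724 present during compound exposure; potency means the concentration at half of the fitted maximal effect; on the % scale 0 is the no-effect control and ±100 the full control effect; nearly all actives have a fitted effect of over 65% in size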
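G418-selected cells were plated in DMEM/10% FBS for 16-24 h at 37C, then treated with compounds plus the PDE inhibitor […] (300 uM solution added) for 30 min at 37C. Intracellular cAMP was measured by HTRF after 30 min lysis at room temperature.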
Sfp inh: Sfp phosphopantetheinyl transferase inhibition | Q9F4F7 | Biochemical Sfp PPTase activity, qHTS | Potency, µM, without a hit: max response, negative = inhibition, actives largely listed as inhibitors | hit rate 3.5% among 310,000 | AID 1490; active means well fitted inhibition curve with a large enough effect; inconclusive means small, poorly fitted or top-dose-only effect, or another doubt; inactive means no such curve, though single readings can be large or run the other way;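 further: the enzyme is Sfp with the accession as filed and its product quenches rhodamine fluorescence; potency means the concentration at half of the fitted maximal effect; 0% = enzyme reaction without inhibitor and -100% = no enzyme wells; top concentration of the series not given in the record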
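Reaction rates are the 30-min fluorescence difference (ex 525, em 598 nm) in wells containing 15 nM Sfp, 5 uM rhodamine-CoA and 12.5 uM BHQ-2-YbbR at pH 7.6 with 10 mM MgCl2.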
Menin-MLL FL inh: displaces fluorescein MLL peptide from human menin. Fluorescence polarization, fluorescein-MLL peptide displacement from menin. FP activity change, % at 61.4 µM. 290,000 tested, under 10 active; inconclusive = falling polarisation curve, or a change in total fluorescence; inactive = total fluorescence flat and polarisation flat or rising; no compound was filed as active; the % refers to the polarisation; negative = inhibition;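 further: % of control where 0% means no effect; inhibitors lower the polarisation; unlabelled MLL peptide was the positive control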
D2 ag: human D2 receptor agonism in beta-arrestin assay | hit rate 0.084% among 360,000 | DiscoveRx PathHunter D2 beta-arrestin, luminescence, 90 min; 100% = 57 uM dopamine signal | activation, % (concentration not given with the values) | AID 624465 | P14416; in the data active = activation above about 40%; inconclusive = about 15% to 40%; inactive = below about 15%; further: compound concentration not given in the record; the text of the record calls up to 30% inactive
Target sequence (P14416 whole entry, looked up): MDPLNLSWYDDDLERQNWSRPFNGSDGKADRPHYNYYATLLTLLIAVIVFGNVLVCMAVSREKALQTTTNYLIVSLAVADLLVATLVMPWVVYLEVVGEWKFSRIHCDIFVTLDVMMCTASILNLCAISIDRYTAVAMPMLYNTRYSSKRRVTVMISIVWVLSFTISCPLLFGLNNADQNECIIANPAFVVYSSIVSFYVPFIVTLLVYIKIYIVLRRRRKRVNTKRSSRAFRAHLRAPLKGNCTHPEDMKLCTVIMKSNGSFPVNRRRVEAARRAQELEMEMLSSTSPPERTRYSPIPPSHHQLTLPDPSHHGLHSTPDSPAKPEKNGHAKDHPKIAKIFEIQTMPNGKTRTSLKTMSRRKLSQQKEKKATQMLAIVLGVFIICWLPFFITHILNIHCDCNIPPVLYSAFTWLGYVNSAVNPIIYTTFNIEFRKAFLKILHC
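DiscoveRx PathHunter D2 beta-arrestin cells (2,100/well) attached overnight, then compound-stimulated 90 min at 37 C in HBSS/10 mM HEPES/0.1% Tween-20 buffer; beta-galactosidase complementation read by luminescence after 1 h at ambient temperature. Dopamine 57 uM final (EC100) as control.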
PINK1 modulator: PINK1 expression modulation. PINK1 immunofluorescence, high-content cytometry, 24 h. hit rate 0.2% among 410,000. AID 624263. Potency, µM (titrated, usually from 76.6 µM), inactives show at the top dose activation (PINK1 increase), actives largely listed as activators; active = well fitted activation curve with a large enough effect; inconclusive = small, poorly fitted or top-dose-only effect; inactive = flat fitted curve, though single readings scatter; cell line not stated here;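 further: potency means the concentration at half of the fitted maximal effect; % of control where 0% means no effect; nearly all actives have a fitted effect of over 65% in size; a mitochondrial uncoupler was the plate control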
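Compound titrations (5 concentrations, 24 h) on a stable cell line; DMSO and CCCP controls. Endpoint: fixed-cell PINK1 immunofluorescence with mitochondrial, cell and nuclear markers, scanned by microplate cytometer.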
gsp agonist: activates gsp, the McCune-Albright syndrome mutation | gsp mutant cells, cAMP HTRF, 30 min; control for the full effect not named in the record | Potency, µM (doses to about 76.9 µM), for the others: at the highest dose activation (cAMP increase), most hits filed as activators | hit rate 0.13% among 340,000; active = well fitted activation curve with a large enough effect; inconclusive = small, poorly fitted or top-dose-only effect, or another doubt; inactive = no such curve, though single readings can be large or run the other way; cell line not stated here;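 further: phosphodiesterase inhibitor Ro 20-1724 added with compounds to block cAMP breakdown; potency means the concentration at half of the fitted maximal effect; nearly all actives have a fitted effect of over 60% in size; about a fifth of the inactives were tested at one dose only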
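Cells stably selected in G418 were plated at 2000/well, grown 16-24 hr, then given compounds in DMSO with the PDE inhibitor […] (300 uM solution added) for 30 min at 37C; cAMP was read by HTRF.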
* = called active by the depositor; ? = inconclusive; / = no result given; [ ] = another dose, or the depositor's remark. Compounds were not picked by outcome (roughly 5.1% active in at least one column).

SMILES	ClpP mod	gsp antag	Sfp inh	Menin-MLL FL inh	D2 ag	PINK1 modulator	gsp agonist
CCOC(=O)C1=C(COC(=O)[C@H](C)NS(=O)(=O)c2ccccc2F)NC(=O)NC1C (stereo partly specified)	0.4%	4.3%	/	/	-2.8	1.0%	-29.1%
O=C(Nc1cc(Br)c(O)c(Br)c1)c1cccc(NC(=O)c2ccco2)c1	-1.7%	-11.8%	?	-0.4	-5.2	4.4%	-9.4%
Cc1ccc(S(=O)(=O)N2CCN(C(=O)CCC(=O)NCCc3ccc(S(N)(=O)=O)cc3)CC2)c(C)c1	0.1%	4.5%	9.9%	-1.7	-3.8	0.2%	-24.2%
CC12CC3(C)CC(C)(C1)CC(C(=O)NC(=S)N1CCCC1)(C2)C3	/	6.0%	-13.3%	3.8	-6.3	1.5%	-2.6%[15.4 µM]
CCOC(=O)C1CC(c2ccccc2)=NN1c1ccccc1 (stereo unspecified)	3.8%	/	/	/	-6.0	4.2%	?
Cc1cccc2cc(C(c3nnnn3C(C)(C)C)N(Cc3ccco3)CC3CCCO3)c(=O)[nH]c12 (stereo unspecified)	-1.9%	-18.5%	12.3%	2.4	-1.9	-1.1%	-38.2%[inhibitor]
CCOc1cnc(C(=O)NNC(=O)c2ccccc2Br)o1	/	11.8%	2.7%	-0.3	-1.0	0.4%	-5.1%[15.4 µM]
O=C(CSc1nccc(=O)[nH]1)Nc1ccccc1Sc1ccccc1	/	-15.3%	1.3%	-1.0	-2.1	-1.8%	6.0%[15.4 µM]
COc1ccccc1NS(=O)(=O)c1cc(C(=O)NCC(c2ccco2)N2CCCCC2)ccc1C (stereo unspecified)	-5.0%	-0.6%	/	/	-1.0	-6.7%	12.2%
Cc1cc(=O)oc2cc(NC(=S)NCc3cccnc3)ccc12	4.0%	8.6%	0.3%	5.1	4.8	-0.4%	?
Cc1ccccc1NC(=O)c1ccc(OCC(=O)Nc2ccccc2F)cc1	-4.8%	-8.2%	-9.4%	2.1	-3.6	8.3%	-14.1%
COc1ccc(S(=O)(=O)Cc2ccc(C(=O)NCC(OC)OC)o2)cc1	-2.9%	14.1%	0.9%	-1.6	-1.2	0.5%	?
COc1cccc(CC(=O)OCC(=O)c2cc(OC)c(OC)c(OC)c2)c1	-3.3%	2.9%	/	/	4.4	-1.8%	2.0%
CC(C)NC(=O)c1ccc(NC(=O)CC2SC(N3CCCC3)=NC2=O)cc1 (stereo unspecified)	0.7%	13.9%	/	/	4.2	0.2%	-21.6%
Cc1ccc(S(=O)(=O)N2CCN(CC(=O)NCC3(N4CCOCC4)CCCCC3)CC2)cc1	-2.4%	-1.3%	/	/	-6.3	2.7%	?
O=C(N/N=C/c1cccnc1)c1cccc(NC(=O)c2cccc(Br)c2)c1	/	-14.4%	0.3%	-4.7	2.9	2.1%	-1.2%[15.4 µM]
c1cncc(CN2CCN(c3cc(-c4cnc5ccccc5c4)nc4ccnn34)CC2)c1	-1.3%	/	/	/	-3.1	12.6%	/
O=C(Cc1ncc(C(F)(F)F)cc1Cl)N1CCN(c2cccc(Cl)c2)CC1	1.2%	5.5%	-5.8%	-5.3	-0.5	/	-9.9%
COc1cccc(C(=O)NC2CC3CCCC(C2)N3CC(=O)Nc2ccccc2C(F)(F)F)c1 (stereo unspecified)	/	?	13.1%	-0.6	0.8	3.6%	-10.7%
Cc1cc(C2(c3ccc(O)c(C)c3)C(=O)N(C)c3ccc(Br)cc32)ccc1O	-1.6%	20.5%	/	/	4.1	18.1%	-4.0%
O=C(CCC1CCCC1)N1CCC(N2CCN(c3ccccc3)CC2)CC1	-2.0%	3.9%	-22.8%	3.3	-0.2	-1.1%	-33.1%[inhibitor]
C[C@H](CO)N1C[C@H](C)[C@@H](CN(C)S(=O)(=O)c2cccc(C#N)c2)OCc2cnnn2CCCC1=O	-2.0%	/	/	/	-2.1	0.7%	-38.3%[inhibitor]
Cc1nn(Cc2ccccc2)c(C)c1NC(=O)CCC(=O)O	-0.4%	-0.1%	19.7%	0.7	-2.8	-0.8%	20.1%
C=CCn1cccc(/C=C/C(=O)c2ccc(C(C)(C)C)cc2)c1=S	-2.0%	-9.5%	-21.1%	-0.6	-6.1	-1.8%	3.7%[15.4 µM]
CCn1c(CC(=O)Nc2ccc(C)c(Cl)c2)nnc1SCc1ccc(Cl)c(Cl)c1	-3.3%	2.3%	-22.8%	5.6	-4.5	2.3%[38.3 µM]	-52.0%[inhibitor]
CCOc1ccc(OCCC(=O)Nc2cccc(S(=O)(=O)N3CCCC3)c2)cc1	-1.3%	-15.7%	/	/	2.4	2.8%	32.9%
CN(C)C(=O)CCSc1nnc(-c2ccncc2)o1	/	5.8%	-4.5%	-2.7	-2.9	2.1%	21.5%[15.4 µM]
CCCn1c(C)cc(C(=O)COC(=O)c2ccc(Cl)c(S(=O)(=O)N3CCCC3)c2)c1C	4.1%	-6.5%	7.7%	0.2	-2.1	0.1%	-28.4%
C=CCSc1nc2sc3c(c2c(=O)[nH]1)CCC3	/	-5.5%	1.8%	1.3	6.9	-0.9%	16.2%[15.4 µM]
COc1ccc(/C=N/Nc2nc3ccccc3s2)cc1O	-0.9%	-4.7%	-12.2%	2.5	-3.4	-1.5%	-2.2%[15.4 µM]
Clc1ccc(-c2cn3cccnc3n2)cc1	91.9%	6.7%	19.1%	0.9	-4.4	0.9%	-17.9%
CCOC(=O)C#CC(CCc1ccccc1)OS(N)(=O)=O (stereo unspecified)	-0.7%	4.9%	11.9%	2.6	-3.0	1.9%	-4.8%
CCCOC(=O)CSC1=C(C#N)C(c2ccccc2Cl)CC(=O)N1 (stereo unspecified)	0.9%	-7.9%	-11.1%	1.1	-0.7	1.5%	-0.9%
Cc1nn(-c2ccccc2)c(C)c1NC(=O)COC(=O)c1cc([N+](=O)[O-])ccc1NCCO	-1.7%	-6.1%	-5.8%	-1.8	-3.9	-0.7%	?
CCCCc1nc(S(=O)(=O)c2ccc(Cl)cc2)c(N2CCOCC2)o1	0.5%	-6.4%	1.9%	3.1	-4.3	-0.8%	-3.4%
COCC(C)n1c(C)cc(C(=O)CSc2nnc(N)s2)c1C (stereo unspecified)	-0.7%	-7.8%	8.4%	-2.2	2.7	1.0%	-4.7%
CN(C)C(=O)CN1C(=O)NC2(CCc3ccccc32)C1=O (stereo unspecified)	-15.2%	0.0%	11.6%	/	0.9	1.1%	-13.6%
CCN(CC)CCNC(=O)c1ccc(NC(=O)c2cc(-c3ccco3)nc3ccccc23)cc1	4.0%	9.7%	?	/	-1.8	-0.6%	9.5%
Cc1ccsc1/C=N/NC(=O)c1cc(-c2ccncc2)nc2ccccc12	-1.6%	18.5%	-5.5%	5.4	4.3	3.5%	1.9%
O=C(Nc1nc2ccccc2s1)c1cc(-c2ccccc2)nn1-c1ccccc1	28.2µM*	-15.1%	?	2.9	-0.4	1.3%	-0.1%
CC(C)N1C2OC(C3OC4C(O3)N(C(C)C)S(=O)(=O)N4C(C)C)OC2N(C(C)C)S1(=O)=O (stereo unspecified)	-1.0%	18.0%	1.7%	0.1	-0.9	0.5%	0.8%
Cc1ccccc1OCC1CN(CN2CCOCC2)C(=O)O1 (stereo unspecified)	0.0%	12.1%	11.1%	3.0	-1.2	1.4%	3.8%
C#CCOCCOCCOCCNc1nc(N2CCN(C(=O)[C@H](CCCCN)n3cc(CCC(=O)O)nn3)CC2)nc(N2CCN(C(=O)[C@H](CCCCN)n3cc(CC(C)O)nn3)CC2)n1 (stereo partly specified)	-1.2%	4.4%	/	/	-2.9	1.3%	/
COC(=O)c1cn(C)c2ccc(S(=O)(=O)N3CCCCC3)cc2c1=O	1.0%	-8.7%	4.1%	-4.4	-4.1	3.2%[38.3 µM]	?
CCn1cc(Cl)c(C(=O)Nc2cc(C(=O)OC)cc(C(=O)OC)c2)n1	2.5%	-11.5%	2.7%	-1.2	4.3	6.7%	0.3%[15.4 µM]
O=C(O)COc1ccccc1/C=N/NC(=O)CSc1nc2ccccc2c(=O)n1-c1ccccc1	/	-5.8%	22.0%	0.7	-5.5	-1.2%	-8.3%[15.4 µM]
O=C(COC(=O)c1cc(S(=O)(=O)N2CCOCC2)cs1)c1ccccc1	-1.6%	-1.2%	10.7%	6.0	-0.5	-1.1%	-0.5%
O=C(CSc1nnc(-c2ccc(NS(=O)(=O)c3ccccc3)cc2)o1)NCC1CCCO1 (stereo unspecified)	-5.4%	7.6%	14.5%	0.5	-0.8	0.1%	6.4%
COc1ccc(-c2csc(NC(=O)CN3C(=O)C4CC=CCC4C3=O)n2)cc1OC (stereo unspecified)	-5.0%	-10.1%	/	/	-1.5	3.2%	0.7%
COc1ccc(-n2c(SCC(=O)Nc3ccc(Cl)cc3)nc(O)c(Cc3ccccc3)c2=O)cc1	-0.2%	?	27.0%	1.3	-1.8	3.2%	9.2%
Continuation:
SMILES	ClpP mod	gsp antag	Sfp inh	Menin-MLL FL inh	D2 ag	PINK1 modulator	gsp agonist
O=S(=O)(NCC(c1cccnc1)N1CCN(c2ccccc2F)CC1)c1cccs1 (stereo unspecified)	1.5%	-1.8%	-2.2%	-2.1	-1.6	-0.5%	-23.0%
Cc1ccccc1Nc1nc(=O)c2cc([N+](=O)[O-])ccc2s1	1.0%	3.9%	?	4.4	1.0	-1.6%	-2.3%
COc1ccc(OC)c(Nc2nc3ccc(C)cc3n3cnnc23)c1	25.6%	?	-21.6%	15.3	-17.6	4.5%	-3.3%
CCN(CC(=O)Nc1ccc2c(c1)OCCO2)C(=O)CSCC(=O)Nc1ccc(C)cc1	-1.1%	12.8%	/	/	-0.6	-3.7%	?
CCOC(=O)Nc1cc(Br)c2c(c1)OCCO2	-0.2%	0.0%	5.9%	-2.0	-3.6	/	-4.4%
CC(=O)Nc1ccc(NC(=O)COC(=O)c2ccccc2C(=O)c2ccccc2)cc1	0.8%	10.3%	/	/	0.9	1.8%	-2.5%
COc1ccc(-c2cc(C(=O)O)nc3ccc4ccccc4c23)cc1OC	-0.3%	-0.8%	2.6%	1.2	-0.5	-0.5%	-8.7%[15.4 µM]
Cc1cccc(NC(=O)C2CCCN2C(=O)OCc2ccccc2)c1 (stereo unspecified)	0.4%	-5.9%	/	/	-2.2	1.3%	/
O=C(NC(=S)N(Cc1ccccc1)c1ccccn1)C1CC1	?	8.5%	-24.8%	4.0	-3.5	-2.5%	?
